Screening results as filed in PubChem BioAssay.
YopH PTP inh: YopH (Yersinia) phosphatase inhibition | fluorescence Ex485/Em525 | inhibition, %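 (about 10 µM by stock and volumes)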 | 140,000 tested, 0.16% active | AID 898;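 active means inhibition of 50% or more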;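 further: controls were vehicle for no effect and minimum signal wells for full effect; inactives centre near -20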
Arbovirus anti: blocks arbovirus infection | inhibition, % at 10 µM | arbovirus infection cell-based antiviral screen | 200,000 tested, 0.37% active;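 active means inhibition from about 30%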;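 further: bluetongue infection of BSR cells; cell survival read as ATP light after 72 h; 0% = infected wells without compound and 100% = uninfected wells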
RecA splice inh: inhibitors of M. tuberculosis RecA intein splicing; inhibition, %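 (about 9 µM by stock and volumes)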; AID 2221; cell-free RecA intein splicing, fluorescence; 290,000 tested, 0.75% active; P9WHJ3; in the data active means inhibition above about 30%; inconclusive means no clear call, values can overlap the other calls;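 further: 0% = vehicle wells and 100% = reference inhibitor control wells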
Target sequence (P9WHJ3 whole entry, looked up, canonical isoform): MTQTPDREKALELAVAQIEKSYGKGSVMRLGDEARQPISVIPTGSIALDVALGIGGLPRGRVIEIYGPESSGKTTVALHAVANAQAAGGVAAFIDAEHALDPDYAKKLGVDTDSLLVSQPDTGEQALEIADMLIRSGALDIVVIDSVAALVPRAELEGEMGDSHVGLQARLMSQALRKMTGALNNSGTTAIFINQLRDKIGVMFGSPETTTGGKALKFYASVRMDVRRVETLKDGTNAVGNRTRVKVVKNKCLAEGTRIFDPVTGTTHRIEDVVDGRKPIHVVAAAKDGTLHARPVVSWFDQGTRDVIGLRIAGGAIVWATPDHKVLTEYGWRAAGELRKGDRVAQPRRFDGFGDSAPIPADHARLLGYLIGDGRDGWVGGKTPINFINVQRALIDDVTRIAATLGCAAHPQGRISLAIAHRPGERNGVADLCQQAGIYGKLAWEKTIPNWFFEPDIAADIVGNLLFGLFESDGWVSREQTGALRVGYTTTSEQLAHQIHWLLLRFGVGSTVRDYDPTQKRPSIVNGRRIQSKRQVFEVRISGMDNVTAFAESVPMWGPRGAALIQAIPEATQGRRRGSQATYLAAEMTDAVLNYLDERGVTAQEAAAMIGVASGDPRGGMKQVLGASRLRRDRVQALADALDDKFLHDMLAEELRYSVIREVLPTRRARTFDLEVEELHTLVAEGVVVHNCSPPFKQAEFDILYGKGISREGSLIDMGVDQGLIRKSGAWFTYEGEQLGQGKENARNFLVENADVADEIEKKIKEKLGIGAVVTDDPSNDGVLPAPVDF
Mtb bLac sens: beta-lactam sensitization of Mtb H37Rv | 330,000 tested, 0.27% active | M. tuberculosis H37Rv growth with meropenem, percent inhibition; hits of this screen are not shown here | inhibition, % at 25 µM | AID 434955;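 active means about 74% or more and at least 40 points above the plate without the antibiotic, then above 30% in a dose series; inconclusive means first-round hits that could not be retested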;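 further: growth measured after seven days incubation then overnight dye step; 0% = bacteria only wells and 100% = bacteria with antibiotic; twin plates without the antibiotic show which effects depend on it; some results filed as inactive read as strong as hits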
Mtb H37Rv: M. tuberculosis H37Rv growth inhibitors, H37Rv strain (AID 1626). M. tuberculosis H37Rv growth inhibition; higher % means a stronger effect. inhibition, % at 10 µM; hits with a dose series show IC50 in µM. 220,000 tested, 0.95% active;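 active means confirmed in a dose series; inconclusive means inhibition above 80% but not taken into the dose series; inactive means below 80% or under 30% at every dose of the series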;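 further: bacteria incubated seven days before Alamar blue readout; 0% = bacteria only wells and 100% = bacteria with antibiotic wells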
Arbovirus anti repeat: further read-out of Arbovirus anti, marked with its call; inhibition, %; measured here: 10K subset replicate screen; many hits read low in the repeat;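 first of two repeat runs on a subset; 0% = infected and 100% = uninfected wells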
* = called active by the depositor; ? = inconclusive; / = not tested or not shown. Not all compounds are listed; rates above refer to the full screens.

Start of the listing, in advance:
SMILES	YopH PTP inh	Arbovirus anti	RecA splice inh	Mtb bLac sens	Mtb H37Rv	others
N#Cc1c(N2CCN(C(=O)c3ccccc3Cl)CC2)nc(-c2ccccc2)c2c1CCCC2	-29	-17	6.9	10	/
O=C(Nc1cccc([N+](=O)[O-])c1)C12CC3CC(C1)CC(n1cnc([N+](=O)[O-])n1)(C3)C2	-48	-4	2.4	-9	4%

The list itself, repeating the preview:
SMILES	YopH PTP inh	Arbovirus anti	RecA splice inh	Mtb bLac sens	Mtb H37Rv	others
N#Cc1c(N2CCN(C(=O)c3ccccc3Cl)CC2)nc(-c2ccccc2)c2c1CCCC2	-29	-17	6.9	10	/
O=C(Nc1cccc([N+](=O)[O-])c1)C12CC3CC(C1)CC(n1cnc([N+](=O)[O-])n1)(C3)C2	-48	-4	2.4	-9	4%
COc1ccc(-n2nc(C(=O)NCC(=O)Nc3cc(C)ccc3OC)c3ccccc3c2=O)c(OC)c1	/	/	-2.0	5	/
COc1ccc(OC)c(S(=O)(=O)N2CCC3(CC2)OCCN3S(=O)(=O)c2cccs2)c1	/	/	1.0	-8	/
O=C(CCNC(=O)C1CCN(S(=O)(=O)c2ccc(F)cc2)CC1)NCc1ccncc1	/	/	-1.3	0	/
O=C(CSc1cc([N+](=O)[O-])cc(S(=O)(=O)Cc2ccccc2)c1)NC1CC1	-23	-4	-3.1	3	-3%
C/C(=N/NS(=O)(=O)c1ccc(Br)cc1)c1ccc(C)o1	-31	-7	-1.1	4	11%
O=C(CSc1nnc(NC(=O)c2c(F)cccc2F)s1)NC1CCCC1	/	/	-2.1	-11	/
S=C(Nc1ccccc1Cl)N(Cc1ccccc1)Cc1cccnc1	/	1	2.8	-2	-9%
Cc1noc2ncnc(Oc3ccccc3Cl)c12	/	-1	-2.3	1	10%
Cc1cccc(-n2c(SCC(=O)N3CCCC3)nc3n[nH]c(C)c3c2=N)c1	-28	0	2.7	-2	1%
COc1cc(/C=N/NC(=O)Cc2nnc(NC(=O)c3ccccc3)s2)ccc1O	/	/	-2.6	-2	/
CN(O)/C=c1/ccc2c(n1)C(=O)C=CC=2	-39	-22	6.4	100	27%
Cc1cccc(-n2ncc3c(NCCN4CCOCC4)ncnc32)c1	-33	-4	-18	0	4%
COC(=O)c1sccc1NC(=S)N1CCN(c2ccccc2)CC1	-15	-3	-14	3	-3%
COc1ccc(OCC(=O)N2N=C(C)CC2(O)C(F)(F)F)cc1 (configuration not stated)	/	7	0.8	9	3%
O=C(CSc1ccc(-c2ccco2)nn1)Nc1ccccc1F	/	/	2.8	-2	/
CC(=O)c1ccc(S(=O)(=O)N(C)CCCC(=O)N(C)Cc2ccccc2F)cc1	/	/	-0.2	4	/
O=C(NCCc1ccccc1)c1ccc(CS(=O)Cc2ccc(Cl)cc2)o1 (configuration not stated)	/	/	0.6	-3	/
COc1ccccc1CNC(=O)c1csc2c1CCCC2	/	13	3.9	7	1%
COC(=O)/C(C#N)=C1/C=Cc2ccccc2N1C	11	2	4.3	-10	-9%
O=C(NC(=S)Nc1ccc(CN2CCOCC2)cc1)c1ccc([N+](=O)[O-])cc1	-15	5	0.9	7	-2%
O=C(O)CSc1cccnc1Sc1ccc(Cl)cc1	/	/	0.8	-1	/
FC(F)Sc1ccc(NC(=S)NC2CCC(NC(=S)Nc3ccc(SC(F)F)cc3)CC2)cc1 (configuration not stated)	-17	-6	1.5	-1	-6%
Cc1cccc(-c2noc(CN(C(=O)C34CC5CC(CC(C5)C3)C4)C(C)C)n2)c1	-32	-1	-1.4	-10	10%
COc1ccc2c(c1)CC/C2=N\OC(=O)c1ccccc1OC	/	-4	2.3	58	?
Cc1ccc(SCCC(=O)NCCSCc2ccco2)cc1	/	-7	-0.2	-2	3%
CC(=O)c1cn(Cc2ccccc2)c(=O)[nH]c1=O	/	2	-2.5	1	0%
Cc1cc(C)nc(SCc2n[nH]c(=S)n2C)n1	-4	1	4.7	-14	-3%
COc1ccc(NC(=O)C2CCCN(S(=O)(=O)c3ccc(-n4cnnn4)cc3)C2)cc1 (configuration not stated)	/	/	0.7	3	/
CCSc1nnc(NC(=O)[C@@H](NC(=O)c2cc(OC)cc(OC)c2)C(C)C)s1	/	3	-0.5	-2	9%
COc1ccc(S(=O)(=O)N2CCCC(C(=O)NCCN3CCOCC3)C2)cc1C (configuration not stated)	/	/	-1.7	6	/
CCC(C(=O)Nc1nnc(-c2ccco2)s1)c1ccccc1 (configuration not stated)	-56	-4	-6.2	11	3%
COc1ccc(NC(=O)CSc2nnc(CNC(=O)COc3ccc(Cl)cc3)o2)cc1	/	5	-1.5	-2	-10%
C#CCOc1ccc(/C=C2/C(=O)NN(c3ccc(F)cc3)C2=O)cc1OC	/	/	-0.9	57	/
COc1ccc(S(=O)(=O)N2CCC(C(=O)O)(c3ccccc3)CC2)cc1	/	/	-0.9	-5	/
COCCCNC(=O)c1ccc(CS(=O)(=O)c2ccccc2OC)o1	/	/	-0.3	-3	/
CC1(OC(=O)C2CCCC2)C(=O)C=C2C=C(c3ccsc3)N(C3CCCC3)C=C2C1=O (configuration not stated)	/	/	1.5	0	-4%
O=C(NCCNS(=O)(=O)c1ccccc1)N1CCOCC1	-2	-2	-2.1	0	0%
CCCN1C=CC(=C2C(=O)c3ccccc3C2=O)C=C1	-35	-11	0.2	10	-8%
COC(=O)c1ccc(CN(c2ccc(C)cc2)S(=O)(=O)c2ccc3c(c2)OCCO3)o1	0	-6	6.9	-1	6%
O=C(CSc1nc2ccccc2o1)N1CCN(c2ccc(Cl)cc2)CC1	6	12	0.6	-3	-1%
CC(C)(C)C(=O)Nc1ccccc1C(=O)NCc1cccnc1	/	/	1.9	-9	-9%
CCc1noc(C)c1C(=O)N1CCCSC1=Nc1ccccc1Cl	/	/	2.2	-8	/
Cc1ccc(OCC(=O)O/N=C(\N)c2cccnc2)cc1	/	18	-0.8	5	17%
NC(=O)N[C@@H](Cc1c[nH]c2ccccc12)C(=O)OCC(=O)N1CCCCC1	/	5	-0.3	5	-4%
Cc1ccsc1-c1nc(CN2CCCC2c2ccc(F)cc2)c(C)o1 (configuration not stated)	/	3	3.2	-3	5%
C/C(=N\n1c(C)nc2ccccc2c1=O)c1ccc(N)cc1	/	/	2.0	-10	/
O=C(O)C12CC3CC(C1)CC(n1ncc(NCc4ccco4)c(Cl)c1=O)(C3)C2	/	/	4.6	-4	-1%
Cc1c(CN(C)C(=O)c2sc3cc(Cl)ccc3c2Cl)cnn1C	-5	20	1.8	20	-5%

Some of these compounds in order of molecular weight, descending.
SMILES	YopH PTP inh	Arbovirus anti	RecA splice inh	Mtb bLac sens	Mtb H37Rv	others
FC(F)Sc1ccc(NC(=S)NC2CCC(NC(=S)Nc3ccc(SC(F)F)cc3)CC2)cc1 (configuration not stated)	-17	-6	1.5	-1	-6%
COc1ccc(S(=O)(=O)N2CCC(C(=O)O)(c3ccccc3)CC2)cc1	/	/	-0.9	-5	/
Cc1cccc(-n2ncc3c(NCCN4CCOCC4)ncnc32)c1	-33	-4	-18	0	4%

Continued:
SMILES	YopH PTP inh	Arbovirus anti	RecA splice inh	Mtb bLac sens	Mtb H37Rv	others
CCOc1ccc(NC(=S)NCCN2CCN(Cc3ccccc3)CC2)cc1	/	-3	-0.6	-7	-1%
CCCN(CC(=O)Nc1ccc(C(N)=O)cc1)CC(=O)Nc1ccc(Cl)cc1Cl	-7	-14	-3.7	1	1%
Cc1nc(-c2nnc(-c3ccccc3)o2)c(C(F)(F)F)o1	/	/	2.1	27	-6%
O/N=C/c1cc(Br)ccc1OCc1cccc(F)c1	-35	-5	15	-5	3%
CN1C(=O)/C(=C2/C=CC=CN2C)OC1=S	-23	-7	-0.7	-5	-5%
CCOC(=O)c1[nH]c(=O)[nH]c1CSCCO	3	0	-0.9	2	-2%
Cn1c(SCc2ccc([N+](=O)[O-])cc2)nc2c(c1=O)SCC2	/	1	-0.8	2	6%
COc1ccc(CN2C(=O)c3ccccc3C2C(=O)NC2CCCCCC2)c(OC)c1 (configuration not stated)	/	-1	0.7	/	2%
CNC(=S)N(CCc1c(C)[nH]c2ccc(C)cc12)Cc1cc(OC)c(OC)c(OC)c1	1	10	4.0	3	/
O=C(COC(=O)c1ccccc1NS(=O)(=O)c1cccs1)NCC12CC3CC(CC(C3)C1)C2	-33	-7	2.6	10	5%
COc1ccc(N2CCN(CCC3Oc4cc([N+](=O)[O-])ccc4NC3=O)CC2)cc1 (configuration not stated)	/	4	0.0	0	3%
COC(=O)c1ccc(NC(=O)c2cccc(NC(=O)c3ccccc3)c2)cc1	/	/	-0.5	-5	/
Cc1nc2ccc(S(=O)(=O)NCC(=O)Nc3cccc(F)c3)cc2s1	/	0	-3.7	-3	-9%
Cc1ccc(N2CC(C(=O)NCc3ccc(C)n3C)CC2=O)cc1 (configuration not stated)	/	21	5.3	9	12%
Cc1nc2ncnn2c(C)c1Cc1c(Cl)cccc1Cl	-26	-6	1.7	-2	-4%
Cc1nnsc1S(=O)c1ccc(Br)cc1 (configuration not stated)	/	/	1.8	-1	/
CC(=O)Oc1ccc(/C(C)=N/N2CCN(Cc3ccc(C)cc3)CC2)cc1	/	/	-0.9	7	/
COC(=O)c1sc(S(=O)(=O)NCc2cccs2)c(C(=O)OC)c1C	-24	5	2.4	0	-2%
Cc1sc2ncn(CC(=O)NCCc3ccccc3)c(=O)c2c1C	-23	1	0.2	-14	-8%
CCc1nnc(NC(=O)CSc2nccn2-c2ccccc2)s1	-36	5	3.6	-1	-3%
CCCSc1nc2c(c(=O)[nH]c(=O)n2C)n1Cc1ccccc1	/	/	-3.4	2	/
O=C(NCCCO)C(=O)NCc1ccncc1	/	-4	1.7	2	-7%
CC(CC(=O)NCc1cccnc1)c1ccccc1 (configuration not stated)	10	2	-1.4	2	-2%
CCCCN(C(=O)CSCC(=O)Nc1cccc(C)c1)c1c(N)n(Cc2ccccc2)c(=O)[nH]c1=O	/	/	2.4	-3	/
COC(=O)C1(CCSC)NC(c2ccc(O)cc2)C2C(=O)N(c3ccc(F)cc3)C(=O)C21 (configuration not stated)	/	/	-1.4	4	/
COC(=O)C1[C@H]2SC(C)(C)C(C(=O)OC)N2C(=O)N1Cc1nc2ccccc2s1 (some centres not stated)	/	/	-0.5	1	/
O=c1ccc(-c2nc3ccccc3n2Cc2ccc(Cl)cc2)c[nH]1	/	/	3.6	1	/
COc1cc(OC)c(C2=NOC(C(=O)Nc3ccc4c(c3)OCO4)C2)cc1Cl (configuration not stated)	/	-3	5.0	3	5%
COc1ccccc1/C=C\C=N\NC(=O)c1ccco1	/	-2	-0.6	-4	-14%
Cn1cc(C(=O)NS(=O)(=O)Nc2ccc(Br)cn2)c2ccccc21	/	/	1.0	5	/
CCOC(=O)N1CCN(C(=O)c2ccc3c(c2)N=C(CC)c2cc(C)ccc2S3)CC1	/	/	5.4	9	/
Cc1ccc(C)c(N(CC(=O)NCc2ccco2)C(=O)CNS(=O)(=O)c2ccc(F)cc2)c1	/	/	-2.3	1	/
COc1ccccc1CN(C(=O)Cc1cccs1)C(C(=O)NC1CCCC1)c1ccncc1 (configuration not stated)	-15	-4	3.1	9	-3%
COc1ccc(/C=C/C(=O)Nc2ccc(C)cc2)cc1S(=O)(=O)N1CCOCC1	/	/	-7.0	-7	-4%
Cc1cccc(N2C(=O)C3C(c4ccccc4)OC4(C(=O)c5ccccc5C4=O)C3C2=O)c1 (configuration not stated)	-29	12	1.3	3	-3%
c1ccc(-c2nnc(-c3ccccn3)s2)nc1	/	/	-2.2	1	/
CC(C)CN(C(=O)C(c1ccccc1)c1ccccc1)c1c(N)n(CC(C)C)c(=O)[nH]c1=O	/	-8	/	-3	9%
COC(=O)c1ccc2c(CCO)c[nH]c2c1	/	/	0.5	9	/
COc1ccc(Cl)cc1C(=O)NNC(=S)NC(=O)c1ccc(F)c(F)c1	/	/	1.3	98	/
CC1(C)CC(=O)C2=C(C1)OC1=C(C(=O)CC(C)(C)C1)C2c1ccccc1	-12	0	0.4	0	-2%
COc1ccc(/C=N/NC(=O)CNC(=O)c2ccc3c(c2)OCCO3)cc1OC	-32	-10	-1.7	4	-1%
CC(C)N(CCC#N)C(=O)Nc1ccc2c(c1)CCO2	/	/	1.6	-5	-13%
Cc1ccccc1CN1CCNC(=O)C1CC(=O)O (configuration not stated)	-22	4	0.6	-2	1%	Arbovirus anti repeat=4
CN(Cc1ccccc1)C(=O)CCC(=O)N(C)Cc1ccccc1	-45	-5	0.5	-8	0%	Arbovirus anti repeat=-3
CCS(=O)(=O)c1nc(S(=O)(=O)c2ccc(C)cc2)c(NCCCn2ccnc2)s1	/	/	0.2	5	/
COC(=O)c1cccc(C(=O)Nc2ccc(F)cc2)n1	-31	9	-0.7	-2	-3%
COc1cccc(CNC(=O)c2cc3c(cc2Cl)N2CCCCCC2=NS3(=O)=O)c1	/	/	-1.5	-9	/
Nc1nc2ccc(S(=O)(=O)c3ccc4nc(N)sc4c3)cc2s1	-41	9	0.2	-1	-9%
